From PubChem
Mtb bLac sens = beta-lactam sensitization of Mtb H37Rv; M. tuberculosis H37Rv growth with meropenem, percent inhibition; hits of this screen are not shown here; inhibition, % at 25 µM; 330,000 tested, 0.27% active;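 active = about 74% or more and at least 40 points above the plate without the antibiotic, then above 30% in a dose series; inconclusive = first-round hits that could not be retested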;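 note: growth measured after seven days incubation then overnight dye step; 0% = bacteria only wells and 100% = bacteria with antibiotic; twin plates without the antibiotic show which effects depend on it; some results filed as inactive read as strong as hits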
Mtb growth = M. tuberculosis H37Rv growth inhibitors, H37Rv strain (AID 1626); M. tuberculosis H37Rv growth inhibition; higher % means a stronger effect; one-dose inhibition, % at 10 µM; IC50 in µM for titrated hits; 220,000 tested, 0.95% active;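 active = confirmed in a dose series; inconclusive = inhibition above 80% but not taken into the dose series; inactive = below 80% or under 30% at every dose of the series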;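 note: bacteria incubated seven days before Alamar blue readout; 0% = bacteria only wells and 100% = bacteria with antibiotic wells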
Arbovirus anti = arbovirus infection inhibition; arbovirus infection cell-based antiviral screen; inhibition, % at 10 µM; 200,000 tested, 0.37% active;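 active = inhibition from about 30%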;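 note: bluetongue infection of BSR cells; cell survival read as ATP light after 72 h; 0% = infected wells without compound and 100% = uninfected wells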
YopH PTP inh = YopH (Yersinia) phosphatase inhibition; 140,000 tested, 0.16% active; AID 898; inhibition, %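 (about 10 µM by stock and volumes)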; fluorescence Ex485/Em525;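 active = inhibition of 50% or more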;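 note: controls were vehicle for no effect and minimum signal wells for full effect; inactives centre near -20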
RecA intein inh = inhibitors of M. tuberculosis RecA intein splicing. P9WHJ3. cell-free RecA intein splicing, fluorescence. inhibition, %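 (about 9 µM by stock and volumes)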. 290,000 tested, 0.75% active. AID 2221; in the data active = inhibition above about 30%; inconclusive = no clear call, values can overlap the other calls;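 note: 0% = vehicle wells and 100% = reference inhibitor control wells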
Target sequence (P9WHJ3 whole entry, looked up): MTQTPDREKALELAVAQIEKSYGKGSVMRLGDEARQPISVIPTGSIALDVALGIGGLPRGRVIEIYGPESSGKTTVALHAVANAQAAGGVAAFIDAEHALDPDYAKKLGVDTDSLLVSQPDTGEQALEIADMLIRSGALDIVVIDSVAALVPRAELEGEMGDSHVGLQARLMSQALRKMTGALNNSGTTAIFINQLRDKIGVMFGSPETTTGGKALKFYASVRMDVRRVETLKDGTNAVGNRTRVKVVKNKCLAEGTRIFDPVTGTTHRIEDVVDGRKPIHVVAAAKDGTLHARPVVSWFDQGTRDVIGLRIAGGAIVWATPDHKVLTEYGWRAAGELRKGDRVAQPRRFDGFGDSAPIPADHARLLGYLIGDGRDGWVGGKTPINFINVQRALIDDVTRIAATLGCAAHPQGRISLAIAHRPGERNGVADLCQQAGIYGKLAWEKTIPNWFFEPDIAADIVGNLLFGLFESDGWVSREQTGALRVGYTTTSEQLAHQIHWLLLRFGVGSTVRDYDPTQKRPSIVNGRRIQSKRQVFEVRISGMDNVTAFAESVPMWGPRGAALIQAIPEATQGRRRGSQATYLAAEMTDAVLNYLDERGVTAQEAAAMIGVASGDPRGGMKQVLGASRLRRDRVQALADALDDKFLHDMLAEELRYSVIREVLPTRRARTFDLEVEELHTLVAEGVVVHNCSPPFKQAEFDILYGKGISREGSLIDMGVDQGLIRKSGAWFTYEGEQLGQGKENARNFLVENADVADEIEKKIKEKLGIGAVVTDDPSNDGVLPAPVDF
Arbovirus anti repeat = recorded beside Arbovirus anti, whose call it bears; inhibition, %; measured here: 10K subset replicate screen; many hits read low in the repeat;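 first of two repeat runs on a subset; 0% = infected and 100% = uninfected wells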
* hit, by the source's call; i = inactive; ? = inconclusive; . = no result given. The list is partial (hit frequency here may not be typical).

SMILES | Mtb bLac sens | Mtb growth | Arbovirus anti | YopH PTP inh | RecA intein inh | others
Cc1nc(C(=O)NC2CC2)sc1C1(C)CC(c2cccc([N+](=O)[O-])c2)=NO1 (stereo not given) | -13 | -6% | . | . | -27
COCc1nnc(NC(=O)c2ccccc2Oc2ccccc2)s1 | -2 | -1% | 1 | . | 2.2
O=C(O)/C=C/c1ccc(OCc2cccc(F)c2)cc1 | -1 | 14% | 14 | . | 1.3
CN1CCC(=NNC(=O)CSc2ccc(Cl)cc2)CC1 | -4 | -2% | -6 | . | 2.5
Cc1[nH][nH]c(=O)c1C(c1ccc(Br)cc1)c1c(C)[nH][nH]c1=O | 0 | . | . | . | 98*
CCOC(=O)[C@@H]1CCN(Cc2ccccc2)C[C@H]1c1ccccc1 | 3 | 0% | . | . | 1.4
CC(=O)Nc1cccc(NC(=O)c2ccccc2OCc2ccccc2)c1 | 3 | . | . | . | 0.2
C=CCn1c(C)c(C(C)=O)c(N2CCN(C(c3ccccc3)c3ccccc3)CC2)nc1=S | 53 | 16% | 1 | . | 11
O=C(O)c1ccc(NS(=O)(=O)c2ccc(Cl)c(Cl)c2)cc1O | -9 | 4% | -2 | -65 | 1.9
Cc1ccc(-c2cc(C(=O)N(C)CC(=O)Nc3ccccc3Br)c3ccccc3n2)o1 | -6 | . | . | . | -4.7
CCOC(=O)c1sc(NC(=O)CSc2nncs2)c(C(=O)OCC)c1C | 9 | 0% | 0 | -9 | 0.1
c1ccc(C2Nc3ccccc3-c3nc4ccccc4n32)cc1 (stereo not given) | 1 | -5% | 8 | 8 | -2.0
CCC(C)c1ccccc1NC(=O)CN1CCN(C/C=C/c2ccccc2)CC1 (stereo not given) | 98 | 22µM* | -2 | -16 | 2.2
O=S(=O)(/N=C(/Nc1ccc(Cl)c(S(=O)(=O)N2CCOCC2)c1)c1ccc(F)cc1)c1ccccc1 | -3 | . | . | . | 0.8
COC(=O)CSc1cc(C(=O)c2nccn2C)c2ccccc2n1 | 10 | 6% | 8 | -2 | 0.5
C=CCNC(=S)NNC(=O)CSc1nc2ccccc2s1 | 3 | -2% | 7 | -32 | 3.5
CS(=O)(=O)c1ccc(NS(=O)(=O)c2ccc3ccccc3c2)cc1 | 3 | . | . | . | -0.9
CC1CCCCC1NC(=O)CCCn1c(=S)[nH]c2ccsc2c1=O (stereo not given) | 3 | . | . | . | 1.5
COCCn1c(SCC#N)nnc1-c1ccccc1 | 3 | -3% | 4 | -46 | -0.7
CCOC(=O)c1c(NC(=O)COC(=O)c2nc(Cl)ccc2Cl)sc2c1CCC2 | 3 | 9% | -3 | -11 | 2.3
Cc1ccc2nc3nc(NCC4CCCO4)c(C(=O)NC4CCCC4)cc3c(=O)n2c1 (stereo not given) | 1 | -8% | -8 | -21 | i
CCN(CC)Cc1c(O)c(Cl)cc2c3c(c(=O)oc12)CCCC3 | 2 | -4% | 19 | -13 | -171
CC(C)=CCN1CCN(Cc2cn(C(C)C)c3ccccc23)CC1CCO (stereo not given) | 1 | . | . | . | 0.6
CN(C)CCCN1c2ccccc2CCc2ccc(Cl)cc21 | 3 | 2% | -43 | -33 | -0.8
Cc1ccc(N(CC(=O)NCCSCc2ccco2)S(C)(=O)=O)cc1 | 0 | 1% | -4 | 2 | -0.2
COc1cccc(-c2c(C(=O)N/N=C(\C)c3ccco3)nnn2-c2nonc2N)c1 | -1 | . | . | . | -1.1
CCOc1cc(-c2nc(-c3ccccc3OC)no2)cc(OCC)c1OCC | 56 | 7% | 3 | 9 | -2.1
COc1ccc(S(=O)(=O)N2CCOCC2)cc1Br | 3 | 3% | -1 | . | -4.4
CCN(CC)CCNC(=O)c1nn(-c2ccc(C)cc2)c(=O)c2c1c1ccccc1n2C | 72 | 11% | -11 | -20 | 0.0
O=C(CSc1nnc(NC(=O)c2ccc(F)cc2F)s1)NC1CCCC1 | -5 | . | . | . | 4.9
CCOc1ccc(CCNC(=O)c2ccc(CS(=O)Cc3ccc(Cl)cc3)o2)cc1 (stereo not given) | -5 | . | . | . | 3.2
CCOC(=O)C1CCN(C(=O)COc2cc(C)c(Br)c(C)c2)CC1 | 96 | 41% | 11 | -48 | 5.2 | Arbovirus anti repeat=-3
Cc1nn2c(-c3ccccc3)ccnc2c1Br | 4 | . | . | . | -1.0
O=S(=O)(c1ccc(-c2n[nH]c(=S)o2)cc1)N1CCCCC1 | 1 | . | . | . | 3.3
O=C(Nc1ccncc1)Nc1ccc(Cl)cc1 | -4 | . | . | . | 2.0
O=[N+]([O-])c1ccc2c(c1)C=C1CCCCC1(N1CCCCC1)O2 (stereo not given) | 2 | 1% | -3 | -17 | 1.1
COc1ccc(C(=O)Nc2c(N)nc(SCC(=O)NCC3CCCO3)[nH]c2=O)cc1OC (stereo not given) | -12 | . | . | . | 0.3
COc1ccc(C(CNC(=O)c2oc3cc(C)c(C)cc3c2C)N2CCCCC2)cc1 (stereo not given) | 94 | . | . | . | 1.5
CCOc1cnn(-c2cc(Oc3ccc(C)cc3)ncn2)c(=O)c1Cl | -11 | 4% | 1 | -10 | 1.1
Cc1nc(CSc2ccc(Br)cc2)cs1 | -9 | . | . | . | -0.3

The closing six records of the section before are carried over, then new ones follow:
SMILES | Mtb bLac sens | Mtb growth | Arbovirus anti | YopH PTP inh | RecA intein inh | others
O=C(Nc1ccncc1)Nc1ccc(Cl)cc1 | -4 | . | . | . | 2.0
O=[N+]([O-])c1ccc2c(c1)C=C1CCCCC1(N1CCCCC1)O2 (stereo not given) | 2 | 1% | -3 | -17 | 1.1
COc1ccc(C(=O)Nc2c(N)nc(SCC(=O)NCC3CCCO3)[nH]c2=O)cc1OC (stereo not given) | -12 | . | . | . | 0.3
COc1ccc(C(CNC(=O)c2oc3cc(C)c(C)cc3c2C)N2CCCCC2)cc1 (stereo not given) | 94 | . | . | . | 1.5
CCOc1cnn(-c2cc(Oc3ccc(C)cc3)ncn2)c(=O)c1Cl | -11 | 4% | 1 | -10 | 1.1
Cc1nc(CSc2ccc(Br)cc2)cs1 | -9 | . | . | . | -0.3
O=C(C1CCN(S(=O)(=O)c2cccs2)CC1)N1CCN(Cc2ccccc2)CC1 | -5 | 6% | 3 | . | -2.6
Cc1ccn(CCSCC(=O)O)n1 | 7 | 3% | 12 | -8 | 0.8
O=S(=O)(c1c(F)cccc1F)N1CCN(C(=S)NCc2ccc3c(c2)OCO3)CC1 | 0 | -5% | -5 | . | -3.2
CN1CCN(NC(=O)Nc2ccc(Br)cc2Cl)CC1 | -2 | . | . | . | 1.0
CCOC(=O)c1ccsc1NC(=O)CCS(=O)(=O)c1ccccc1 | ? | . | . | . | -2.8
Cc1cc(N2CCCN(C)CC2)nc2cc(Cl)ccc12 | -11 | -2% | -37 | -29 | 0.7
C(#CC12CC3CC(CC(C3)C1)C2)CN1CCOCC1 | -7 | 4% | 1 | . | 1.7
COc1cccc(Nc2nnc(SCc3cc([N+](=O)[O-])cc4c3OCOC4)s2)c1 | 0 | -3% | -7 | 1 | -3.4
Cc1ccc(CCNC(=O)C2CC(=O)N(CCc3ccccc3)C2)cc1 (stereo not given) | -2 | . | . | . | 0.9
Cc1oc(-c2ccccc2Cl)nc1CSCC(=O)NC1CCCC1 | 9 | -8% | 12 | -5 | 1.4
Nc1nc(SCC(=O)N2CCN(c3ccccc3)CC2)n[nH]1 | -17 | . | . | . | -2.8
COc1ccccc1OCC(=O)Nc1oc(-c2ccccc2)c(-c2ccccc2)c1C#N | 40 | 1% | -16 | -7 | .
CCCC(CCC)C(=O)NNc1cc(=O)c2c(=O)n(C)c(=O)n(C)c2[nH]1 | 0 | . | -20 | -26 | -4.0
CCOC(=O)C1=C(C)NC2=C(C(=O)c3ccccc32)C1c1cccnc1 (stereo not given) | -1 | 2% | -1 | -12 | -0.5
COc1ccc(-c2cn3cccnc3n2)cc1NC(=O)C1CCCC1 | . | -6% | 5 | -18 | 3.2
CCCNC(=O)C(Sc1ccccc1)c1ccccc1 (stereo not given) | 1 | -4% | -5 | -16 | 0.6
C/C(Cc1ccccc1)=N\NC(=O)CNC(=O)COc1cccc(C)c1 | -8 | -2% | . | . | -0.7
O=C(NCCc1c[nH]c2ccccc12)C1CCN(S(=O)(=O)c2ccc(F)cc2)CC1 | 1 | . | . | . | 0.5
COc1ccc(OC)c(N(CC(=O)N2CCCC2)S(C)(=O)=O)c1 | -4 | . | . | . | 1.5
Cc1cccc(C)c1NC(=O)CSc1nnc(-c2ccoc2C)n1CCc1ccccc1 | 9 | . | 13 | -10 | 4.1
Cc1c(C(=O)N2c3ccccc3CC2C)oc2ccccc12 (stereo not given) | 5 | . | . | . | 16
CN(Cc1cccs1)C(=O)CSc1nnnn1C | 3 | -10% | -1 | -20 | -2.0
CCCOc1ccc(/C=N/NC(=O)CSCc2ccc([N+](=O)[O-])cc2)cc1OCC | 6 | 17% | 6 | -7 | -11
Cc1ccc2cc(CN(Cc3ccc4c(c3)OCO4)Cc3nnnn3Cc3ccco3)c(=O)[nH]c2c1C | 18 | 14% | -18 | -9 | -1.5
O=C(c1cccc([N+](=O)[O-])c1)n1nc(-c2ccccc2)nc1NCc1ccccc1 | -1 | 6% | -2 | -9 | 6.5
COc1cc2c(cc1OC)CN(S(=O)(=O)c1ccccc1F)CC2 | -8 | . | . | . | 0.5
O=C(NCC(=O)N(Cc1ccc(F)cc1)C(C(=O)NC1CCCC1)c1ccco1)c1ccco1 (stereo not given) | -11 | 9% | -5 | -31 | 2.9
Cc1nc(SCC(=O)O)c(C#N)c2c1CCCC2 | -5 | -9% | . | . | -1.0
O=C(COc1cccnc1[N+](=O)[O-])N1N=C(c2ccc(Cl)cc2)CC1c1ccco1 (stereo not given) | 0 | -4% | -1 | . | 2.8
C#CCNc1c2c(nc3nnnn13)CCCC2 | -7 | -11% | 21 | . | -1.2
COc1ccc(-c2cc(C(=O)Nc3ccccc3O)c3ccccc3n2)cc1OC | -11 | 3% | 21 | . | -3.7
O=C(c1cccs1)N1C2CCC1CC(O)(c1cccnc1)C2 (stereo not given) | -3 | -2% | 5 | -32 | 2.7
Cc1ccc(C(=O)COc2ccc3c(C)cc(=O)oc3c2)cc1 | -2 | . | . | . | -0.4
O=C(Nc1nc2ccsc2c(=O)s1)C1CCC1 | -9 | -1% | . | . | 1.0
CCN(CC)CCNCC(=O)Nc1ccc(Cl)cc1C(=O)c1ccccc1 | -6 | -5% | 8 | -4 | -2.0
O=C(OCc1ccc(Br)cc1)c1cccc(-c2nnc(-c3ccccc3)o2)c1 | 1 | 3% | 9 | -12 | 0.1
Cc1cc(C)nc(SCc2cn3c(C)cc(C)nc3n2)n1 | -3 | -4% | . | . | -0.8
CCOC(=O)c1ccc(NC(=S)NCc2ccc(F)cc2)cc1 | 68 | . | . | . | 1.4
CCCc1nnc(SCC(=O)O)n1CC | 2 | -2% | . | . | 0.7
NC(=O)Nc1ccc(C(=O)OCC(=O)Nc2ccc([N+](=O)[O-])cc2C(F)(F)F)cc1 | -3 | -1% | 2 | -21 | -4.5
COCc1nnc(NC(=O)c2cc(OC)c(OC)cc2[N+](=O)[O-])s1 | 7 | -3% | 1 | -27 | 2.6
Cc1cccc(NC(=O)C(=O)NCC2CCCO2)c1 (stereo not given) | 0 | -6% | -8 | . | -0.7
c1cc(-n2nnc3cnccc32)ccn1 | -1 | 14% | . | . | 5.6
CCn1c(CNC(=O)c2ccc(F)cc2)cc2ccccc21 | -3 | . | . | . | -1.0
O=C(CSc1ccc(Cl)cc1)Nc1cccc(NC(=O)c2ccco2)c1 | 0 | 1% | -8 | -37 | 4.7
O=C(O)c1cccc(S(=O)(=O)N2CCOCC2)c1 | -9 | -3% | 5 | -25 | -1.7
COc1cc(-n2c(=S)[nH]c3ccc(C)cc3c2=O)c(Cl)cc1Cl | . | ? | -8 | . | 0.3
O=C(Nc1nc2c(Cl)c(Cl)ccc2s1)C1CC1 | 4 | . | . | . | -1.1
Cn1cc(C(=O)c2cccc(Cl)c2)cc1/C=N\O | -8 | 3% | -4 | . | -0.9
Cc1ccc(C(=O)Nc2cccc([N+](=O)[O-])c2)cc1S(=O)(=O)Nc1ccc(NC(=O)c2ccccc2)cc1 | 31 | 91% | -15 | -15 | 1.5
Cc1ccc(NC(=O)Cn2cc(C(=O)C3CC3)c3ccccc32)cc1 | 9 | . | . | . | 0.5
Cc1cccc(C(=O)Nc2ccc(S(=O)(=O)N3CCOCC3)cc2C)c1 | -3 | . | . | . | -1.3
Cc1ccc(S(=O)(=O)NCCNC(=O)N2CCOCC2)cc1 | 3 | -5% | 11 | 0 | -1.0
O=C(Nc1ccc(F)cc1)N1CCc2ccccc2C1 | 0 | -1% | -7 | . | 0.6
CCN(CCCNC(=O)c1[nH]c(C)c(C(C)=O)c1C)c1cccc(C)c1 | -5 | 8% | -23 | -27 | -3.3
